# N370S GC mod: N370S glucocerebrosidase modulation, Gaucher chaperone candidate; P04062; N370S GC spleen homogenate, 4MU-glucoside fluorescence; Potency, µM (highest dose often 59.4 µM), for the others: at the top dose activity change, negative = inhibition, actives largely listed as inhibitors; hit rate 0.092% among 330,000; active = well fitted inhibition curve with a large enough effect; inconclusive = small, poorly fitted or top-dose-only effect, or effect the other way, or another doubt; inactive = no such curve, though single readings can be large or run the other way;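 note: 0% = full enzyme activity and -100% = no enzyme basal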
# An asterisk follows results filed as active; ? = inconclusive. Potency is the fitted concentration of half-maximal effect. Some of the compounds tested, and most or all hits are left out here.
SMILES,N370S GC mod
CS(=O)(=O)c1ccc(N)cc1,13.9%
CCOC(=O)c1ccc(NC(=O)N2CCN(Cc3ccccc3)CC2)cc1,2.6%
CCCn1ncc(CN2CCC(N3CCC(C(=O)N4CCOCC4)CC3)CC2)c1C,1.3%
O=C(O)C1C(c2ccccc2)C(C(=O)OCCCO)C1c1ccccc1 (stereo not given),3.0%
Cc1nonc1CC(=O)NC1CCCc2c1cnn2-c1ccc(F)cc1F (stereo not given),0.2%
COc1ccc(-c2nn3c(-c4ccco4)nnc3s2)cc1OC,0.2%
O=C1COc2ccc(S(=O)(=O)Nc3ccc4c(c3)OCO4)cc2N1,-0.6%
COc1ccccc1N1CCN(c2nc(-c3ccccc3)cc(C(F)(F)F)n2)CC1,-20.4%
CN(C)S(=O)(=O)c1ccc(C(=O)OCC2COC(C)(C)O2)cc1 (stereo not given),-1.9%
CN1C(C(=O)NCc2ccc(OC(F)(F)F)cc2)CC2Cn3c(nc4ccccc43)C21 (stereo not given),4.3%
C/C(=N/NC(=O)c1cccc(N2CCCC2=O)c1)c1ccc(Br)cc1,-2.8%
CCC1S/C(=N/N=C/c2ccco2)N(c2ccc(F)cc2)C1=O (stereo not given),-3.1%
O=C(COC(=O)c1cccc(Oc2ccccc2)c1)NCc1ccco1,-10.9%
O=C(C(=C1NCCN1)n1cncn1)c1ccccc1,11.2%
O=c1cc2c(nn1Cc1ccc(Cl)cc1Cl)-c1ccccc1CC2,22.7%
CC(=O)N/C(=C\c1ccccc1)C(=O)NCc1ccc2c(c1)OCO2,14.4%
NC(=O)CSc1nnc(-c2ccc(S(=O)(=O)N3CCCC3)cc2)o1,10.6%
CCCCn1c(=O)[nH]c(=O)c2c1nc(-c1ccc(C(F)(F)F)cc1)n2C,-3.8%
COc1ccc(-c2nc3c4c(ncn3n2)-c2ccccc2CC42CCCC2)cc1,1.5%
COc1ccc(C(=O)NC(=S)NCc2ccccc2)cc1,7.2%
CCCOc1ccc(C(C(=O)OCCN(CC)CC)c2ccccc2)cc1 (stereo not given),-8.2%
C=CCn1c(N)c(C(=O)N2CCOCC2)sc1=S,-2.8%
CC(C)C(NC(=O)c1ccc(C(C)(C)C)cc1)C(=O)O (stereo not given),-9.5%
Cc1ccc(Cl)c(NC(=S)N(CCCN2CCOCC2)Cc2ccco2)c1,?
O=C(COC(=O)C1CC1)NCc1ccccc1,-0.2%
CN1CCN(c2cc(N3CCN(C(=O)c4ccco4)CC3)c3c4c(onc24)-c2ccccc2C3=O)CC1,-9.2%
Nc1nc2n(n1)C(c1cccc(Br)c1)CC(c1ccccc1)N2 (stereo not given),-1.2%
CCC(=O)Nc1cccc(NC(=S)NC(=O)c2ccccc2)c1,-2.1%
COc1cc(OC)c(NC(=O)CN(C)S(=O)(=O)c2ccc(-c3ccc(=O)[nH]n3)s2)cc1Cl,-8.0%
O=C(c1ccc(N2CCOCC2)cc1)N1CCCC(Nc2ccccc2)C1 (stereo not given),-19.2%
CC1CCc2sc(C(=O)NN=C3CCC(c4ccccc4)CC3)cc2C1 (stereo not given),30.8%
CC1CC(=O)C2=C(C1)Nc1ccccc1SC2c1ccc(F)cc1 (stereo not given),?
COc1cc(C=C2C(=O)OC(C)(C)OC2=O)cc(Cl)c1OCC(=O)Nc1ccccc1,7.8%
Cc1cc2oc(C(=O)NCCc3ccc(S(N)(=O)=O)cc3)c(C)c2cc1C,5.2%
CC(C)N1CCC(N2CCN(Cc3cccnc3)CC2CCO)CC1 (stereo not given),4.2%
COc1ccc(N2C(N)=C(C#N)C(c3cccnc3)C3=C2CC(C)(C)CC3=O)cc1 (stereo not given),-1.0%
N#C/C(=C\c1cn(-c2ccccc2)nc1-c1ccccc1)S(=O)(=O)c1ccccc1,8.0%
CCCCC(C(=O)NC(C)(C)C)N(Cc1ccco1)C(=O)c1snc(C(N)=O)c1N (stereo not given),13.0%
Cc1[nH]c2ccccc2c1CCN(Cc1cccs1)C(=S)NC(C)(C)C,-17.7%
CC(C)NC(=S)N(CCc1ccncc1)C(C)C,2.0%
O=C(Nc1nncs1)c1cc(-c2ccncc2)nc2ccc(Cl)cc12,-11.3%
Cc1ccc(Cn2c(CN3CCOCC3)nc3c2c(=O)[nH]c(=O)n3C)cc1,-25.9%
N#CCCN1CCN(S(=O)(=O)c2cc(Cl)ccc2Cl)CC1,2.5%
COc1cc([N+](=O)[O-])ccc1NC(=S)NC(=O)CC(C)(C)C,2.5%
Cc1ccc(-c2nnc(C)c(N3CCCC3)n2)cc1,6.5%
CC(=O)N1c2ccc(S(=O)(=O)N3CCCC3)cc2CC1C(=O)NCc1ccccc1F (stereo not given),-9.7%
O=[N+]([O-])c1ccc(/C([O-])=C(/C(=S)NCc2ccco2)[n+]2ccccc2)cc1,0.0%
CCOC(=O)CSc1nnc(-c2cccc(Cl)c2)n1CC,-3.7%
CCN(C1CCCCC1)S(=O)(=O)c1ccc(C(=O)O)cc1,1.3%
CS(=O)(=O)c1ccc2nnn(OCC(=O)Nc3ccc(Br)cc3Br)c2c1,-9.4%
O=C(COc1ccc(Br)cc1Cl)NC(=S)Nc1ccccn1,1.7%
Cn1c(=O)n(C)c2cc(S(=O)(=O)N3CCCCC3)ccc21,0.2%
COc1cc(C(=O)Nc2c(C)cc(C)cc2C)c([N+](=O)[O-])cc1OC,0.4%
CC(SC(=S)N1CCCC1)C(=O)O (stereo not given),8.7%
CC(C)N(C)CCOC(=O)c1ccc2c(c1)OCCO2,9.4%
COc1cc(CNc2nc(C)c([N+](=O)[O-])c(C)c2C#N)cc(OC)c1,3.6%
CC(C)c1nnc(NC(=O)CCC(=O)NC2CCCCCC2)s1,0.2%
NS(=O)(=O)c1cccc2cccnc12,26.2%
Cc1cc(=O)n(C)c(=O)n1CCCCOc1cccc([N+](=O)[O-])c1,-7.2%
Cc1ccc(NC(=O)CN(C)C(=O)Nc2ccc(C)cc2)cc1,2.4%
# Further entries.
SMILES,N370S GC mod
O=C(NNC(=O)c1ccccc1[N+](=O)[O-])c1ccc(NS(=O)(=O)c2cccs2)cc1,-16.7%
COc1ccc(S(=O)(=O)N2CCCCCC2)cc1,7.5%
CCCCC(=O)NC(c1ccc(N(CC)CC)cc1)c1ccc2cccnc2c1O (stereo not given),-16.8%
Cc1ccccc1CS(=O)(=O)Cc1ccc(C(=O)N2CCOCC2)o1,5.3%
CC(=O)C1=C(c2ccccc2)N(C(C)=O)n2c(C)nnc2S1,-1.2%
CC(=O)N1CCc2cc(Br)cc(S(=O)(=O)N3CCCCC3)c21,-0.2%
CCOc1ccccc1OCCCC(=O)NCCc1ccc(S(N)(=O)=O)cc1,-2.6%
CCOc1ccc(C(C)=O)cc1Cn1nc(C(=O)O)c2ccccc2c1=O,12.5%
COc1ccccc1NC(=O)Cn1nnc2sc3c(c2c1=O)CC(C)(C)OC3,-4.8%
CN(CC(O)COC(c1ccccc1)c1ccccc1)C1CCCCC1 (stereo not given),-2.7%
CC(C)C(=O)Nc1cccc(NC(=O)c2cccc([N+](=O)[O-])c2)c1,3.7%
Cc1ccc(-c2[nH]nc3c2C(c2ccc(OC(=O)N4CCOCC4)cc2)C(C#N)=C(N)O3)cc1 (stereo not given),16.7%
O=C(Nc1ccc2c(c1)CCC2)C1COc2ccccc2O1 (stereo not given),20.7%
O=c1cnnc(Nc2ccc(F)cc2)[nH]1,-18.5%
CC1CN(C(=O)COC(=O)c2cc(=O)c3ccccc3o2)CC(C)O1 (stereo not given),5.8%
CC[C@@H](Nc1ncnc2c1oc1ccccc12)C(=O)O,-2.9%
Cc1cc(Nc2ccc(C)c(Cl)c2)nc(N2CCOCC2)n1,?
Cc1cc(C)n(-c2ccc(F)cc2)c(=O)c1C#N,-3.0%
COc1cc(OC)c(C(=O)OCC(=O)N(Cc2ccccc2)C(C)(C)C)cc1OC,1.6%
O=C(Nc1nc2ccccc2n1CCN1CCCC1)c1ccc(Cl)cc1,7.6%
CCOC(=O)c1ccc(NC(=O)CN2C(=O)NC3(CCC(C)CC3)C2=O)cc1 (stereo not given),-2.2%
CC(C)OCCCn1c(=S)[nH]c2ccc(N3CCOCC3)cc2c1=O,-4.3%
O=C(CSc1nnc(-c2ccccc2)o1)Nc1ccccc1F,23.7%
O=C(CCc1ccc(S(=O)(=O)N2CCOCC2)cc1)Nc1ccc2c(c1)OCCO2,0.6%
CCN(CC)CCCNC(=O)c1cc(Sc2nnc(C)s2)nc2ccccc12,-6.8%
CCCC(=O)Nc1cc(=O)[nH]c2ncnn12,4.7%
CCOc1ccc(C(CC(=O)O)NC(=O)COc2ccccc2)cc1OC (stereo not given),-0.7%
COC(=O)CSc1nc2ccccc2o1,-27.1%
O=C(CCOc1ccccc1)Nc1ccc(S(=O)(=O)N2CCCC2)cc1,3.0%
CN(C)CCNS(=O)(=O)c1ccc(Cl)cc1,-13.0%
CC(=O)N1N=C(c2ccccc2)OC1c1ccc([N+](=O)[O-])s1 (stereo not given),-2.5%
Nc1nc2nc(Cl)[nH]c2c(=O)[nH]1,2.6%
O=C(Cn1c(C(F)(F)F)nc2ccccc21)N1CCCC1,2.7%
CC(=O)N/N=C(\C)c1ccc(Br)cc1Br,2.3%
Cc1cc(Br)ccc1N=C1NC(=O)CS1,-20.1%
COc1cccc(/C=C/C(=O)NCCc2ccc3c(c2)OCCO3)c1,10.7%
CC(NC(=O)Cn1c(=O)oc2cc(S(=O)(=O)N3CCCC3)ccc21)c1ccccc1 (stereo not given),4.9%
Cc1ccccc1Cn1c(C)cc(C)c(C#N)c1=O,-4.4%
COc1ccc(C2NC(=O)N(C)C(C)=C2[N+](=O)[O-])cc1 (stereo not given),-8.3%
O=C(OCC(=O)N1CCCC1=O)C1CCN(S(=O)(=O)c2c(Cl)cccc2Cl)CC1,-16.4%
O=C(Cn1nc(C(=O)O)c2ccccc2c1=O)Nc1ccc(F)cc1F,5.3%
NS(=O)(=O)c1ccc(CCNC(=O)CSc2nc3ccsc3c(=O)n2CC(=O)O)cc1,-3.9%
COC(=O)C(CC(=O)c1cccc(OC)c1)c1ccc(F)cc1 (stereo not given),0.7%
CCC1(c2ccccc2)NC(=O)N(CC(=O)NCc2ccc(OC)cc2)C1=O (stereo not given),-5.7%
COc1ccc2c3c1OC1CC(O)C=C[C@@]31CCN(C)C2 (stereo not given in full),-1.7%
c1ccc(Cn2c(SCc3cn4cccnc4n3)nnc2-c2ccco2)cc1,4.1%
NS(=O)(=O)c1ccc(NC(=O)COC(=O)C2(c3ccc(F)cc3)CCCC2)cc1,9.1%
CCCCOC(=O)C1C2C=C[C@]3(CN(CCCOC)C(=O)[C@H]13)O2 (stereo not given in full),5.0%
Cc1ccc(-c2cn3cccnc3n2)cc1NC(=O)c1c(-c2ccccc2Cl)noc1C,20.5%
CC1(C)CC(NC(=O)C23CCC(C)(C2Br)C3(C)C)CC(C)(C)N1 (stereo not given),-0.2%
COc1cccc2c1C(=O)c1c(O)c3c(c(O)c1C2=O)C[C@@](O)(C(=O)CO)C[C@@H]3OC1C[C@@H](N)[C@H](O)[C@H](C)O1 (stereo not given in full),-7.6%
COc1ccc(CCN(C)C(=O)CCCN2C(=O)c3cccc4cccc(c34)C2=O)cc1OC,-1.6%
COc1ccccc1NS(=O)(=O)c1ccc(NC(=O)N2CCCCC2)cc1,3.2%
Cc1cccc(C(C)Nc2ccc([N+](=O)[O-])cn2)c1 (stereo not given),9.3%
O=C(Nc1cc(C(F)(F)F)cc(C(F)(F)F)c1)Nc1cnn(-c2ccc([N+](=O)[O-])cc2)c1C(F)(F)F,1.3%
O=C(Nc1ccc(Cc2ccc(NC(=O)C3CC3)cc2)cc1)C1CC1,-7.2%
CC(C)COc1cccc(C(=O)NC(=S)Nc2cccc(NC(=O)c3ccccc3Cl)c2)c1,-4.9%
c1ccc2c(Cn3nnc4ccccc43)cccc2c1,23.2%
CC(=O)OCC(=O)[C@]1(O)C(C)CC2C3CCC4=CC(=O)C=C[C@@]4(C)[C@]3(F)C(O)C[C@@]21C (stereo not given in full),-2.8%
CCC(Cc1ccccc1)NC(=O)C1CCN(S(=O)(=O)c2c(C)noc2C)CC1 (stereo not given),-27.9%
CCOC(=O)C1CCCN(C(=O)c2cn(CC(C)C)c(=O)c3cc(OC)c(OC)cc23)C1 (stereo not given),2.9%
CCCCNC(=S)N(C)/N=C/c1c(F)cccc1F,-1.5%

# Two successive records out of the list so far:
SMILES,N370S GC mod
CCOC(=O)C1CCCN(C(=O)c2cn(CC(C)C)c(=O)c3cc(OC)c(OC)cc23)C1 (stereo not given),2.9%
CCCCNC(=S)N(C)/N=C/c1c(F)cccc1F,-1.5%

# By substructure: the compounds so far containing a Cl atom
SMILES,N370S GC mod
O=c1cc2c(nn1Cc1ccc(Cl)cc1Cl)-c1ccccc1CC2,22.7%
Cc1ccc(Cl)c(NC(=S)N(CCCN2CCOCC2)Cc2ccco2)c1,?
COc1cc(OC)c(NC(=O)CN(C)S(=O)(=O)c2ccc(-c3ccc(=O)[nH]n3)s2)cc1Cl,-8.0%
COc1cc(C=C2C(=O)OC(C)(C)OC2=O)cc(Cl)c1OCC(=O)Nc1ccccc1,7.8%
O=C(Nc1nncs1)c1cc(-c2ccncc2)nc2ccc(Cl)cc12,-11.3%
N#CCCN1CCN(S(=O)(=O)c2cc(Cl)ccc2Cl)CC1,2.5%
CCOC(=O)CSc1nnc(-c2cccc(Cl)c2)n1CC,-3.7%
O=C(COc1ccc(Br)cc1Cl)NC(=S)Nc1ccccn1,1.7%
Cc1cc(Nc2ccc(C)c(Cl)c2)nc(N2CCOCC2)n1,?
O=C(Nc1nc2ccccc2n1CCN1CCCC1)c1ccc(Cl)cc1,7.6%
CN(C)CCNS(=O)(=O)c1ccc(Cl)cc1,-13.0%
Nc1nc2nc(Cl)[nH]c2c(=O)[nH]1,2.6%
O=C(OCC(=O)N1CCCC1=O)C1CCN(S(=O)(=O)c2c(Cl)cccc2Cl)CC1,-16.4%
Cc1ccc(-c2cn3cccnc3n2)cc1NC(=O)c1c(-c2ccccc2Cl)noc1C,20.5%
CC(C)COc1cccc(C(=O)NC(=S)Nc2cccc(NC(=O)c3ccccc3Cl)c2)c1,-4.9%
